Assay outcomes deposited in PubChem BioAssay by several laboratories.
eIF4H FP inh: human eIF4H binding inhibitors, primary screen, translation initiation inhibitor project, biochemical, uHTS, fluorescence polarization; eIF4H fluorescence polarization binding assay; 0.94% of 290,000 active; AID 2012, 2009; Eukaryotic translation initiation factor 4H (Homo sapiens), Q15056; inhibition, % at 35 µM;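 active means 50% or more with normal probe brightness, or confirmed in later tests; about a fifth of its hits are not listed in these tables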;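 further: calls also rest on retests at 20 µM and on dose response follow-up; 0% = protein and probe with vehicle and 100% = probe without protein; strong numbers were not always called active; many hits fall short of the cut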
HIV Env fusion: inhibitors of HIV-1 Env-driven cell-cell fusion, primary screen, HeLa-JRFL effector, CEM21 target cells, luciferase; inhibition, % at 12.3 µM; 1.1% of 360,000 active; AID 651610, 2012;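 active means mean replicate inhibition score of at least 50 and every replicate individually at or above 50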;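 further: 0% = plate neutral controls and 100% = maraviroc near 300 nM; one replicate is shown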
MT1-MMP act inh: blockers of MT1-MMP proenzyme processing, primary screen, HT1080 RFP-PRO-GFP cells, GFP/RFP fluorescence; Matrix metalloproteinase-14 (Homo sapiens), P50281; 0.061% of 360,000 active; GFP/RFP ratio fluorescence, overnight; percent of plate control window, DMSO zero; AID 651647, 2012; GFP/RFP ratio change, % at 20 µM;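 active means GFP/RFP ratio change of at least 30% with cell ATP level not reduced by more than half and red fluorescence within 50% of control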; further: strong numbers were not always called active
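Assay system – RFP-PRO-GFP reporter HT1080 cells · Compound dosing – single dose of 20 µM compound, 1% DMSO final · Incubation – overnight compound exposure at 37 °C · Measure – GFP/RFP fluorescence ratio · Benchmarks – DMSO wells and RFP-L50D-GFP cells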
PABP FP inh: PABP poly(A) RNA binding inhibitors, primary screen, biochemical, fluorescence polarization, uHTS | 1% of 290,000 active | inhibition, % at 35 µM | AID 2014, 2009 | Polyadenylate-binding protein 1 (Homo sapiens), P11940;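 active means 50% or more with normal probe brightness, or confirmed in later tests; about a fifth of its hits are not listed in these tables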;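 further: calls also rest on retests at 20 µM and on dose response follow-up; controls were probe without protein and protein plus probe with vehicle; some compounds called inactive have numbers as strong as hits; many hits fall short of the cut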
Target sequence (P11940 whole entry, looked up): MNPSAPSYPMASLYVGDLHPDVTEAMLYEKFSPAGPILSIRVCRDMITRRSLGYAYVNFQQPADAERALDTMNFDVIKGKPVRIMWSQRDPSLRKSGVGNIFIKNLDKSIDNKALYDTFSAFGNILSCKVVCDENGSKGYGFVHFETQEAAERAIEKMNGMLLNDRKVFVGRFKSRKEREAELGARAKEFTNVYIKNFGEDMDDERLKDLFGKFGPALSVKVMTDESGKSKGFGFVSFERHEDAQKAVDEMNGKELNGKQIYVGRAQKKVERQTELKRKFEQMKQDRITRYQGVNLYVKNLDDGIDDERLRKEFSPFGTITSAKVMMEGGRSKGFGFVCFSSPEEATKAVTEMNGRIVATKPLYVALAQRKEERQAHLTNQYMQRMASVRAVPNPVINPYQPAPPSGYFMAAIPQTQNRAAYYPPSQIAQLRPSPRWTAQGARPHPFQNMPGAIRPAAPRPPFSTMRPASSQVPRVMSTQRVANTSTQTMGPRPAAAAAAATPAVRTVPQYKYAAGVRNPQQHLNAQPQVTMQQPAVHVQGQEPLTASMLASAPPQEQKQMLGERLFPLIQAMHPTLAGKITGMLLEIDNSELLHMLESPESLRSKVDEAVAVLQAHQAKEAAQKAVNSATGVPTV
Rce1 inhib: yeast Rce1p protease inhibitors, primary screen, biochemical, fluorescence, cell-free homogeneous. calls only. 0.27% of 290,000 active. CAAX prenyl protease 2 (Saccharomyces cerevisiae (strain ATCC 204508 / S288c)), Q03530. yeast membranes, quenched prenylated peptide cleavage fluorescence;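 active means fall in fluorescence gain of 50% or more versus controls, with final raw signal at or below 3038400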;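 further: plate controls were neutral control wells for no effect and wells lacking membranes for full effect; tested at 10 µM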
Target sequence (Q03530 whole entry, looked up): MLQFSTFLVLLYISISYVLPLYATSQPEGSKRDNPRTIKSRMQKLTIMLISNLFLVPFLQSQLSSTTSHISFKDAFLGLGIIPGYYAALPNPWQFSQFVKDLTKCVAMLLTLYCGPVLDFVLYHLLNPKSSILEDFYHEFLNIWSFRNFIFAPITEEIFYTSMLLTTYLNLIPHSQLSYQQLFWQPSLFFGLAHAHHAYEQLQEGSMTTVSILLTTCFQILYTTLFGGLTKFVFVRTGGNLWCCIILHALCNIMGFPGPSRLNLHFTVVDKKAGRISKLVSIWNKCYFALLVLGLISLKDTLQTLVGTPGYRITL
CSC inhib: cancer stem cell viability inhibitors, primary screen, luminescence; cancer stem cell-like cells viability; inhibition, % at 7.5 µM; 1.1% of 300,000 active; AID 2717, 2010;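 active means mean at 75% or more and at least half the replicates too; tested in HMLE shEcad cells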;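 further: 0% = median of negative and 100% = median of positive control wells; the first replicate is given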
Yeast UUG start: modulators of yeast start codon fidelity, primary screen, whole organism, S. cerevisiae, single point, plate reader | S. cerevisiae UUG-firefly luciferase reporter, luminescence/redox ratio | activity score, % at 18.7 µM | 0.13% of 350,000 active;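 active means replicate mean at a twofold rise or more, about +100% in these data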;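 further: firefly luciferase made from a UUG start codon reports start codon fidelity; reporter light over untreated wells divided by growth signal over untreated wells; some hits fall short of that in this replicate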
eIF4H FP inh retest: further read-out of eIF4H FP inh, marked with its call; inhibition, %; compound at 20 µM; confirmation average;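 mean of two retest wells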
PABP FP inh retest: recorded beside PABP FP inh, whose call it bears; inhibition, %; compound at 20 µM; confirmation repeats;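 mean of two retest wells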
MT1-MMP act inh RFP: also measured in MT1-MMP act inh; calls as there; RFP signal change, %; measured here: RFP expression control read;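 0 = vehicle wells; hits needed this value within 50% of zero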
The depositor's hits bear a star; i = inactive; . = not tested or not shown; & = joins results of further samples. An excerpt (hit frequency here may not be typical).

Start of the data: the first 2 records (preview)
SMILES | eIF4H FP inh | HIV Env fusion | MT1-MMP act inh | MT1-MMP act inh RFP | PABP FP inh | Rce1 inhib | CSC inhib | Yeast UUG start | others
CCOC(=O)c1sc(NC(=O)CCCn2nc([N+](=O)[O-])cc2C)c(C(=O)OCC)c1C | -16 | . | 6 | -6 | -1 | i | 3 | -17
COC(=O)C1=C(C(=O)OC)C(c2cc(Br)ccc2O)c2sc(=O)[nH]c2S1 (centres undefined) | 0 | -43 | 0 | 26 | -22 | . | -9 | .

Results, from the first entry:
SMILES | eIF4H FP inh | HIV Env fusion | MT1-MMP act inh | MT1-MMP act inh RFP | PABP FP inh | Rce1 inhib | CSC inhib | Yeast UUG start | others
CCOC(=O)c1sc(NC(=O)CCCn2nc([N+](=O)[O-])cc2C)c(C(=O)OCC)c1C | -16 | . | 6 | -6 | -1 | i | 3 | -17
COC(=O)C1=C(C(=O)OC)C(c2cc(Br)ccc2O)c2sc(=O)[nH]c2S1 (centres undefined) | 0 | -43 | 0 | 26 | -22 | . | -9 | .
O=c1oc2cc(OCc3nn[nH]n3)ccc2c2c1CCCC2 | 7 | 11 | -4 | -2 | 26 | i | -8 | -20
COc1ccc(OCCC(=O)N2CCN(C)CC2)cc1 | -4 | 2 | -2 | 1 | 3 | i | 0 | -8
CCC(CO)NC(=O)c1cc2c(s1)CCC2 (centres undefined) | 82 | -6 | -3 | 2 | 42 | i | -8 | -17 | eIF4H FP inh retest=2;PABP FP inh retest=8
CCCCN(CCCC)c1nn[nH]n1 | . | 5 | 2 | 1 | . | . | . | -15
CC1(C)N=C(c2cccc(F)c2)C(=O)N1 | -10 | . | 3 | 2 | 6 | i | -2 | 8
CC1CC(C)(C)NC2(CCCC2)N1 (centres undefined) | . | 18 | -5 | 2 | . | . | . | -22
COc1ccccc1/C=N/N1C(=O)C(CC(=O)Nc2ccc([N+](=O)[O-])cc2OC)SC1=Nc1cccc(C)c1C (centres undefined) | 10 | -1 | . | . | 4 | i | 55 | .
O=C(CCCCCn1c(=S)[nH]c2cc3c(cc2c1=O)OCO3)N1CCN(c2ccc(F)cc2)CC1 | 2 | 6 | 4 | 3 | -10 | i | -4 | -23
Cc1ccc2c(c1)C(=O)C(=O)N2CC(=O)OC(C)C | 7 | . | -6 | 0 | 1 | i | 1 | .
COC(C[C@H]1O[C@@H]1C(=O)COCc1ccccc1)OC | . | -166 | . | . | . | i | 2 | .
CCOC(=O)Cn1ccc(NC(=O)c2ccc(F)cc2)n1 | -2 | 32 | 1 | 2 | -14 | i | -7 | 0
Cc1cnc(C(=O)Oc2ccc(-c3ccccc3)cc2)cn1 | 2 | -9 | 6 | 3 | 10 | i | 4 | 0
CN(C(=O)c1ccc2c(c1)OCO2)C1CCS(=O)(=O)C1 (centres undefined) | . | 7 | -1 | 4 | . | i | -6 | -5
O=C(c1ccc(S(=O)(=O)N2CCOCC2)cc1)N1CCN(c2ccccn2)CC1 | 1 | 18 | 3 | 4 | -7 | i | -13 | -17
CCCC(=O)Oc1ccc(N(C(=O)CCC)S(=O)(=O)c2cccc([N+](=O)[O-])c2)cc1 | -4 | . | 8 | 3 | 5 | i | -15 | .
C=CCCC(=O)N1CCC(CCC(=O)NC2CC2)CC1 | -9 | -1 | -2 | 1 | -4 | i | 6 | .
COc1cc(C(=O)NC(=S)Nc2ccc([N+](=O)[O-])cc2)cc(OC)c1OC | 2 | 19 | 13 | 1 | 50 | i | -1 | -4
O=C(C1CC(=O)N(c2ccc3c(c2)OCCO3)C1)N1CCN(c2ccccc2O)CC1 (centres undefined) | -2 | 14 | 0 | -5 | 1 | i | -7 | -3
O=C(N/N=C/c1c[nH]c2ccc(Br)cc12)c1ccncc1 | 2 | 19 | 6 | -1 | 7 | i | -8 | .
CCOc1cc(C(=O)NCCN2C(=O)S/C(=C\c3cccnc3)C2=O)cc(OCC)c1OCC | 1 | -6 | -3 | 1 | 0 | i | 22 | .
CC(C)CN(C(=O)COC(=O)c1ccc(Cl)nc1)c1c(N)n(Cc2ccccc2)c(=O)[nH]c1=O | . | -3 | 2 | 0 | . | . | -4 | -8
COc1ccc(CNc2nc(-c3cccnc3)nn2C(=O)CC(C)C)cc1 | 4 | -22 | -1 | -1 | 4 | i | -6 | .
CCc1nc2ccc(C(=O)N3CCN(C(=O)c4ccco4)CC3)cn2c1N(C)CCC(C)C | . | 21 | -4 | 0 | . | . | . | 2
Later entries.
SMILES | eIF4H FP inh | HIV Env fusion | MT1-MMP act inh | MT1-MMP act inh RFP | PABP FP inh | Rce1 inhib | CSC inhib | Yeast UUG start | others
Cc1c(C(=O)NCc2ccccc2C(F)(F)F)sc(=O)n1Cc1ccc2c(c1)OCO2 | . | 8 | 4 | -2 | . | . | . | -18
COc1ccc(OCC(=O)NC(=S)Nc2ccc3c4c(cccc24)CC3)cc1 | 10 | 4 | 3 | 7 | -7 | i | -6 | -13
O=C(Nc1ccccc1F)C(=O)Nc1cccc2ccccc12 | -8 | -70 | -2 | 2 | -5 | . | -7 | -22
COc1ccc(-c2c(-c3cc(OC)cc(OC)c3)n(C)c3ccc(-c4ccc5c(c4)OCCO5)cc23)cc1 | . | 56* | -5 | -1 | . | . | -1 | -11
O=C(c1cccs1)N1N=C(c2ccccc2)CC1c1ccccc1 (centres undefined) | -3 | . | -10 | -6 | 10 | i | 25 | 1
O=C(Nc1cc2c(cc1Br)OCCO2)c1ccc(=O)[nH]c1 | . | . | 2 | -1 | . | . | -11 | -7
CCCNC(=O)C1(C)CCN(C(=O)c2ccc(F)c(Cl)c2)C1 (centres undefined) | . | 0 | -5 | 4 | . | . | . | -6
CC1CN(C(=O)Cn2cc(S(=O)(=O)CC(=O)N3CCOCC3)c3ccccc32)CC(C)O1 (centres undefined) | -8 | -8 | 0 | 3 | -7 | i | -3 | -16
Cc1ccc2c(c1)CCCN2C(=O)c1cc(C)c(C)s1 | . | 1 | 6 | -1 | . | . | . | -25
CN(C)S(=O)(=O)Nc1ccc(Br)cc1F | -4 | 4 | 1 | 1 | 1 | i | -4 | -24
COc1cc2c(O)c3c(c(-c4ccc5c(c4)OCO5)c2cc1OC)C(=O)OC3 | -4 | 63* | -16 | -19 | -3 | i | 91* | -9
Cn1c(=O)oc2cc(S(=O)(=O)NCCC(=O)Nc3ccc4c(c3)OCCO4)ccc21 | 1 | -21 | 2 | -2 | 15 | i | . | -16
COc1ccccc1-c1coc2c(CN3CCC(C)CC3)c(O)ccc2c1=O | -5 | -22 | 1 | 2 | -5 | i | 5 | -17
CCOC(=O)c1c(NC(=O)CSc2nnc(CNc3ccc(Cl)cc3)o2)sc(C)c1C | -5 | 65* | -10 | -7 | -7 | i | 15 | -7
Cc1ccc(S(=O)(=O)N2CCOCC2)cc1C(=O)OCC(=O)NCc1ccccc1 | . | 4 | 1 | -2 | . | i | -4 | -8
CCN(Cc1ccccc1)C(c1ccccn1)c1nnnn1C1CCCCC1 (centres undefined) | 4 | . | -30 | -25 | -3 | i | -9 | 0
COc1ccc(C2=NOC(C(=O)Nc3cc(C)on3)C2)cc1OC (centres undefined) | 0 | 5 | . | . | -1 | i | 9 | .
CCCC1=C(C(=O)OCC)C(c2cccs2)n2ncnc2N1 (centres undefined) | 5 | 4 | 1 | -2 | 1 | i | 1 | .
C=CCn1c(SCn2nnc3ccccc3c2=O)nnc1-c1ccc(Br)cc1 | -3 | 19 | 2 | 0 | -9 | i | -5 | -7
Cc1ccc(NC(=O)CN2C(=O)NC(C)(c3ccc(Cl)cc3)C2=O)cc1 (centres undefined) | 7 | -51 | 4 | -2 | 4 | i | 5 | -6
O=C(Nc1cccc(-c2nc3ccccc3[nH]2)c1)c1ccc(C(=O)Nc2cccc(-c3nc4ccccc4[nH]3)c2)cc1 | -49 | 6 | 5 | 3 | -72 | i | 3 | -17
COc1ccc(/C=N/NC(=O)c2c(C)nc3ccccn23)cc1[N+](=O)[O-] | 13 | -10 | 0 | -1 | -7 | i | -12 | .
COCC1CCCCN1Cc1cn[nH]c1-c1ccc(OC)cc1OC (centres undefined) | -13 | 5 | -3 | -5 | -6 | i | -13 | -14
O=C(CN1CCN(c2ccccc2)CC1)N1N=CCC1c1ccccc1 (centres undefined) | -2 | . | 1 | 3 | -9 | i | . | -11
COC(=O)[C@]1(CC(C)C)N[C@H](c2ccc(-c3cccc(Cl)c3)cc2)[C@@H]2C(=O)N(C)C(=O)[C@@H]21 | . | 27 | 0 | -7 | . | i | 45 | -23
(continued)
SMILES | eIF4H FP inh | HIV Env fusion | MT1-MMP act inh | MT1-MMP act inh RFP | PABP FP inh | Rce1 inhib | CSC inhib | Yeast UUG start | others
CCCCNC(=S)N(C)/N=C/c1ccc(F)cc1 | 5 | 11 | -1 | -4 | 8 | i | 11 | .
CCCCCn1c(SCCCC)nc2c1c(=O)[nH]c(=O)n2C | -1 | -31 | -2 | -5 | 1 | i | -5 | 0
COc1c(C)cccc1C(=O)Nc1ccc(CN2CCOCC2)cc1 | -2 | . | 4 | -2 | 6 | i | -7 | -16
Cc1ccc(/C=N/N2CCN(Cc3ccccc3)CC2)s1 | -5 | -16 | 1 | 0 | -5 | i | 11 | -15
COc1cccc(C(=O)NCC(=O)N2CCC3(CC2)NCCc2[nH]cnc23)c1 | . | -12 | 2 | 3 | . | i | -5 | -3
c1ccc(CN2CCN(CCN3CCn4c3nc3ccccc34)CC2)cc1 | -2 | . | 1 | -2 | 3 | i | 27 | -10
COc1ccc(CCNC(=O)C2CC(O)CN2S(=O)(=O)c2ccc(Cl)cc2)cc1OC (centres undefined) | . | . | -2 | 10 | . | . | -13 | -34
COc1cc2c(cc1OC)C(C)N(C(=O)Cn1ncc3c1-c1cc(C)ccc1OC3)CC2 (centres undefined) | 6 | -12 | -1 | -6 | -11 | i | -2 | -17
Cc1ccc2nc(SCCC#N)nc(C)c2c1 | -3 | . | -15 | -6 | 6 | i | -14 | -19
Cn1c(=O)n(CC(=O)O)c(=O)c2c1nc1n2CCS1 | -3&-3 | 1&-14 | -4&6 | -2&-3 | 3&8 | i | -6&-3 | -7&-17
Cc1ccc(SCc2cc(=O)[nH]c(N3CCOCC3)n2)cc1 | -8 | -12 | -1 | -3 | -1 | i | -4 | -3
CCc1cccc(NC(=O)c2cc(S(=O)(=O)N3CCCCC3)ccc2N2CCOCC2)c1 | . | 9 | -3 | 0 | . | . | . | -9
N=Nc1c(O)n(CC(=O)Nc2ccccc2)c2ccccc12 | 6 | -2 | -1 | -4 | -1 | i | 15 | -1
C=CCCC(=O)N1C[C@H]2CON(C)[C@H]2C[C@H]1c1ccc(Br)cc1 | . | 13 | 0 | 5 | . | . | . | -5
COc1ccc(C)cc1NC(=O)CSc1nnnn1Cc1ccccc1 | 5 | 1 | 1 | -3 | 7 | i | -6 | 3
COc1ccc(Nc2c(C)cccc2C)cc1 | -16 | -13 | 2 | 7 | 2 | i | 12 | -7
COc1ccc(CNC(=O)C2(C)Cc3c(-c4ccc(N(C)C)cc4)ccnc3O2)cc1OC (centres undefined) | . | -1 | -2 | 0 | . | . | . | -11
c1cnc(NC2CCCCCC2)nc1 | -5 | . | 0 | 3 | 10 | i | -17 | -12
COc1cc2nc(-c3ccc(Br)o3)oc(=O)c2cc1OC | -4 | . | 7 | 2 | -8 | i | -10 | -10
